Env fusion inh = inhibitors of HIV Env-mediated cell fusion | HeLa-JRFL Env/CEM21 cell fusion, luciferase | inhibition, % at 12.3 µM | hit rate 1.1% among 360,000 | AID 651610;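 active = mean replicate inhibition score of at least 50 and every replicate individually at or above 50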;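 note: 0% = plate neutral controls and 100% = maraviroc near 300 nM; one replicate is shown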
UUG fidelity = modulators of start codon recognition fidelity in yeast | activity score, % at 18.7 µM | S. cerevisiae UUG-firefly luciferase reporter, luminescence/redox ratio | hit rate 0.13% among 350,000;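 active = replicate mean at a twofold rise or more, about +100% in these data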;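 note: firefly luciferase made from a UUG start codon reports start codon fidelity; reporter light over untreated wells divided by growth signal over untreated wells; some hits fall short of that in this replicate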
An asterisk follows results filed as active; [ ] = another dose, or the depositor's remark. The list is partial; rates above refer to the full screens.

SMILES | Env fusion inh | UUG fidelity
O=C(C[C@@H]1CC[C@H](NC(=O)Cc2cccnc2)[C@@H](CO)O1)NCc1ccc2c(c1)OCO2 | 25[16.7 µM] | -22
CCCC#Cc1cnc2c(c1)C(=O)N([C@H](C)CO)C[C@@H](C)[C@H](CN(C)S(C)(=O)=O)O2 | -2[16.7 µM] | 6
C[C@H]1CN([C@@H](C)CO)C(=O)c2cc(NC(=O)C3CCCCC3)ccc2O[C@@H]1CN(C)C(=O)Nc1cccc2ccccc12 | 14[16.7 µM] | -5
C[C@@H]1CN([C@H](C)CO)C(=O)c2cc(C#CC3CCCCC3)cnc2O[C@@H]1CN(C)S(=O)(=O)c1ccc(F)cc1 | 9[16.7 µM] | -1
O=C(CN1CCOCC1)N[C@@H]1CC[C@H](CCNC(=O)C2CCCCC2)O[C@@H]1CO | 14[16.7 µM] | -4
Cc1noc(C)c1NC(=O)Nc1ccc2c(c1)C(=O)N([C@@H](C)CO)C[C@H](C)[C@@H](CN(C)C(=O)Nc1ccc3c(c1)OCO3)OCCCC[C@H](C)O2 | 18[16.7 µM] | -2
COc1ccc(NC(=O)N(C)C[C@@H]2OCCCC[C@@H](C)Oc3ccc(NS(=O)(=O)c4ccc(OC)cc4)cc3C(=O)N([C@H](C)CO)C[C@H]2C)cc1 | -234[16.7 µM] | -4
C/C=C/c1ccc2c(c1)O[C@@H](CN(C)C(=O)C1CC1)[C@H](C)CN([C@H](C)CO)S2(=O)=O | 12[16.7 µM] | -12
CCCNC(=O)C[C@@H]1CC[C@H]2[C@@H](COc3ccc(NC(=O)Nc4ccccc4F)cc3C(=O)N2C)O1 | 21[16.7 µM] | 24
COc1ccc(C#Cc2ccc3c(c2)O[C@@H](CN(C)C(=O)c2ccccn2)[C@@H](C)CN([C@H](C)CO)S3(=O)=O)cc1 | 26[16.7 µM] | -11
C[C@H](CO)N1C[C@H](C)[C@@H](CN(C)C(=O)c2cccnc2)Oc2ncc(/C=C/c3ccccc3)cc2C1=O | 14[16.7 µM] | -7
CN(C)C(=O)[C@]1(Cc2ccccc2)N=C(c2ccc(OCCCO)cc2)O[C@@H]1c1ccccc1 | -21[16.7 µM] | -1
C[C@@H]1CCCCO[C@H](CN(C)Cc2ccncc2)[C@H](C)CN([C@@H](C)CO)C(=O)c2cc(NC(=O)CCCN(C)C)ccc2O1 | 22[16.7 µM] | -10
C[C@H]1CN([C@@H](C)CO)C(=O)Cc2cc(NS(=O)(=O)c3cn(C)cn3)ccc2O[C@@H]1CN(C)Cc1ccc(Cl)c(Cl)c1 | -1[16.7 µM] | -8
COc1ccccc1-c1cnc2c(c1)C(=O)N([C@H](C)CO)C[C@@H](C)[C@H](CN(C)C(=O)CN(C)C)O2 | -25[16.7 µM] | 6
C[C@@H]1CCCCO[C@@H](CN(C)S(=O)(=O)c2ccc(F)cc2)[C@H](C)CN([C@@H](C)CO)C(=O)c2cc(NC(=O)NC3CCCCC3)ccc2O1 | 24[16.7 µM] | -5
C[C@H]1CN([C@@H](C)CO)C(=O)c2cccc(NC(=O)c3ccncc3)c2O[C@H]1CN(C)C(=O)NC1CCCCC1 | -3[16.7 µM] | 13
C[C@H]1CN([C@@H](C)CO)S(=O)(=O)c2ccc(-c3cncnc3)cc2O[C@@H]1CN(C)C(=O)Cc1cccnc1 | 24[16.7 µM] | -13
COCC#Cc1cnc2c(c1)C(=O)N([C@H](C)CO)C[C@H](C)[C@@H](CN(C)C(C)=O)O2 | -35[16.7 µM] | 2
COc1ccc(S(=O)(=O)Nc2ccc3c(c2)C(=O)N([C@@H](C)CO)C[C@@H](C)[C@H](CN(C)Cc2ccc(Cl)c(Cl)c2)OCCCC[C@@H](C)O3)cc1 | 14[16.7 µM] | 2

The final two compounds of the part before are carried over, then new ones follow.
SMILES | Env fusion inh | UUG fidelity
COCC#Cc1cnc2c(c1)C(=O)N([C@H](C)CO)C[C@H](C)[C@@H](CN(C)C(C)=O)O2 | -35[16.7 µM] | 2
COc1ccc(S(=O)(=O)Nc2ccc3c(c2)C(=O)N([C@@H](C)CO)C[C@@H](C)[C@H](CN(C)Cc2ccc(Cl)c(Cl)c2)OCCCC[C@@H](C)O3)cc1 | 14[16.7 µM] | 2
COc1ccc(S(=O)(=O)N(C)C[C@H]2OCCCC[C@@H](C)Oc3ccc(NS(=O)(=O)c4ccc(F)cc4)cc3C(=O)N([C@@H](C)CO)C[C@@H]2C)cc1 | -33[16.7 µM] | 5
Cc1ccc(S(=O)(=O)N(C)C[C@@H]2Oc3ccc(NS(=O)(=O)c4ccccc4)cc3CC(=O)N([C@H](C)CO)C[C@@H]2C)cc1 | 100*[16.7 µM] | 4
CN1CCN(C(=O)C[C@H]2C[C@@H]3c4cc(NC(=O)c5cccnc5)ccc4O[C@@H]3[C@@H](CO)O2)CC1 | 1[16.7 µM] | -13
C[C@@H]1CN([C@@H](C)CO)C(=O)c2cc(NS(=O)(=O)c3ccccc3)ccc2O[C@@H](C)CCCCO[C@H]1CN(C)S(=O)(=O)c1ccc(F)cc1 | -77[16.7 µM] | -4
Cc1noc(C)c1NC(=O)Nc1ccc2c(c1)C(=O)N([C@@H](C)CO)C[C@H](C)[C@@H](CN(C)S(=O)(=O)c1ccccc1)OCCCC[C@H](C)O2 | -63[16.7 µM] | 10
COCC(=O)Nc1ccc2c(c1)C(=O)N(C)[C@@H]1CC[C@@H](CC(=O)Nc3cn(C)nc3C)O[C@H]1CO2 | 0[16.7 µM] | -13
CNC[C@@H]1OCCCC[C@@H](C)Oc2ccc(NS(=O)(=O)c3cn(C)cn3)cc2C(=O)N([C@@H](C)CO)C[C@H]1C | 2[16.7 µM] | -2
Cc1noc(C)c1NC(=O)Nc1cccc2c1O[C@H](CN(C)C(=O)Nc1cccc3ccccc13)[C@@H](C)CN([C@@H](C)CO)C2=O | -17[16.7 µM] | 12
CCCc1cn(CC[C@@H]2CC[C@@H](NC(=O)C3CCC3)[C@H](CO)O2)nn1 | 2[16.7 µM] | -9
CO[C@H]1CN(C)C(=O)c2ccc(NC(=O)C3CCC3)cc2OC[C@@H](C)NC[C@H]1C | -8[16.7 µM] | -11
CC(C)NC(=O)N(C)C[C@H]1Oc2ccc(NS(=O)(=O)c3cn(C)cn3)cc2C(=O)N([C@@H](C)CO)C[C@@H]1C | -36[16.7 µM] | -20
O=C(C[C@@H]1C[C@@H]2c3cc(NC(=O)NC4CCCC4)ccc3O[C@@H]2[C@@H](CO)O1)NCc1ccc(Oc2ccccc2)cc1 | -9[16.7 µM] | 8
C[C@H](CO)N1C[C@H](C)[C@@H](CN(C)S(=O)(=O)c2ccc(F)cc2)OCCCC[C@H](C)Oc2ccc(NC(=O)Nc3cccc4ccccc34)cc2C1=O | -22[16.7 µM] | -10
COc1ccc(S(=O)(=O)Nc2ccc3c(c2)C(=O)N([C@@H](C)CO)C[C@@H](C)[C@H](CN(C)S(=O)(=O)c2c(C)noc2C)OCCCC[C@@H](C)O3)cc1 | 9[16.7 µM] | -4
C[C@@H]1CN([C@H](C)CO)S(=O)(=O)c2ccc(-c3cccc(C#N)c3)cc2O[C@H]1CN(C)C(=O)C1CC1 | 6[16.7 µM] | -3
O=C(CN1CCOCC1)NCC[C@@H]1CC[C@H](NS(=O)(=O)c2ccc(Cl)cc2)[C@@H](CO)O1 | -4[16.7 µM] | 5
CC(=O)N(C)C[C@H]1Oc2cc(/C=C/c3ccccc3)ccc2S(=O)(=O)N([C@@H](C)CO)C[C@H]1C | 28[16.7 µM] | 6
O=C(C[C@@H]1CC[C@H](NC(=O)Nc2ccc(C(F)(F)F)cc2)[C@H](CO)O1)NCCN1CCCC1 | -31[16.7 µM] | -11
CC(C)NC(=O)N(C)C[C@H]1Oc2ncc(C3=CCCCC3)cc2C(=O)N([C@H](C)CO)C[C@H]1C | 4[16.7 µM] | 0
COc1ccc(C#Cc2cnc3c(c2)C(=O)N([C@H](C)CO)C[C@H](C)[C@@H](CN(C)C(C)=O)O3)cc1 | -11[16.7 µM] | 18

Pulled one by one from the entries so far:
SMILES | Env fusion inh | UUG fidelity
CNC[C@@H]1OCCCC[C@@H](C)Oc2ccc(NS(=O)(=O)c3cn(C)cn3)cc2C(=O)N([C@@H](C)CO)C[C@H]1C | 2[16.7 µM] | -2
Cc1ccc(S(=O)(=O)N(C)C[C@@H]2Oc3ccc(NS(=O)(=O)c4ccccc4)cc3CC(=O)N([C@H](C)CO)C[C@@H]2C)cc1 | 100*[16.7 µM] | 4

More entries follow.
SMILES | Env fusion inh | UUG fidelity
C[C@@H]1CCCCO[C@@H](CN(C)C(=O)Nc2ccc(F)cc2)[C@@H](C)CN([C@H](C)CO)C(=O)c2cc(NC(=O)Nc3ccc(C(F)(F)F)cc3)ccc2O1 | 11[16.7 µM] | -14
C[C@H](CO)N1C[C@H](C)[C@@H](CN(C)S(=O)(=O)c2ccccc2F)Oc2ncc(C#Cc3ccncc3)cc2C1=O | 10[16.7 µM] | -4
CCS(=O)(=O)NCC[C@@H]1CC[C@@H](NC(=O)C2CCCC2)[C@H](CO)O1 | -21[16.7 µM] | 0
CN1CCN(C(=O)C[C@H]2CC[C@H]3[C@@H](COc4ccc(NC(=O)c5cccs5)cc4C(=O)N3C)O2)CC1 | -3[16.7 µM] | -7
C[C@@H]1CCCCO[C@H](CN(C)S(=O)(=O)c2ccc(Cl)cc2)[C@@H](C)CN([C@@H](C)CO)C(=O)c2cc(NC(=O)Nc3cccc4ccccc34)ccc2O1 | -50[16.7 µM] | 6
COc1ccc(S(=O)(=O)Nc2ccc3c(c2)C(=O)N([C@H](C)CO)C[C@H](C)[C@H](CN(C)S(=O)(=O)c2ccc(C)cc2)OCCCC[C@@H](C)O3)cc1 | -15[16.7 µM] | -3
O=C(C[C@H]1CC[C@H](NC(=O)c2ccc3c(c2)OCO3)[C@@H](CO)O1)NCc1ccc(Cl)cc1 | -15[16.7 µM] | 1
C[C@@H]1CCCCO[C@H](CN(C)C(=O)Nc2cccc3ccccc23)[C@@H](C)CN([C@H](C)CO)C(=O)c2cc(NC(=O)Nc3ccc(F)cc3)ccc2O1 | -14[16.7 µM] | -10
CC(C)C(=O)Nc1ccc2c(c1)C(=O)N(C)[C@H]1CC[C@H](CC(=O)Nc3ccccc3)O[C@@H]1CO2 | 9[16.7 µM] | 3
COc1ccc(NC(=O)N(C)C[C@H]2OCCCC[C@@H](C)Oc3ccc(NC(=O)c4ccncc4)cc3C(=O)N([C@H](C)CO)C[C@@H]2C)cc1 | -5[16.7 µM] | -6
C[C@@H]1CN([C@H](C)CO)C(=O)c2cc(-c3ccncc3)cnc2O[C@@H]1CN(C)C(=O)C1CCOCC1 | -19[16.7 µM] | 4
C/C=C/c1ccc2c(c1)O[C@@H](CN(C)C(=O)NC1CCCC1)[C@H](C)CN([C@H](C)CO)S2(=O)=O | -25[16.7 µM] | 11
CC(C)NC(=O)Nc1cccc2c1O[C@H](CN(C)S(C)(=O)=O)[C@H](C)CN([C@H](C)CO)C2=O | -1[16.7 µM] | -3
COc1cccc(-c2cn(CC[C@@H]3CC[C@@H](NC(C)=O)[C@@H](CO)O3)nn2)c1 | -452[16.7 µM] | 3
C[C@H](CO)N1C[C@H](C)[C@H](CN(C)C(=O)Cc2ccccn2)Oc2ncc(C#CC3CCCCC3)cc2C1=O | 7[16.7 µM] | -6
COc1ccccc1NC(=O)N[C@@H]1CC[C@@H](CCNC(=O)c2ccc3c(c2)OCO3)O[C@@H]1CO | 11[16.7 µM] | 9
COc1ccc(S(=O)(=O)Nc2ccc3c(c2)C(=O)N([C@H](C)CO)C[C@H](C)[C@H](CN(C)S(C)(=O)=O)OCCCC[C@H](C)O3)cc1 | -7[16.7 µM] | -1
C[C@@H](NC(=O)C[C@H]1CC[C@H]2[C@@H](COC[C@@H](O)CN2Cc2cc(F)ccc2F)O1)c1ccccc1 | 8[16.7 µM] | 0
COc1ccc(NC(=O)N(C)C[C@H]2Oc3ccc(NS(=O)(=O)c4ccc(OC)cc4)cc3CC(=O)N([C@H](C)CO)C[C@H]2C)cc1 | -21[16.7 µM] | 0
C[C@@H]1CN([C@@H](C)CO)C(=O)c2cccc(NC(=O)Nc3ccccc3)c2O[C@H]1CN(C)Cc1ccc(C(F)(F)F)cc1 | -9[16.7 µM] | 5

No new results follow: an excerpt of the list.
SMILES | Env fusion inh | UUG fidelity
COc1ccc(NC(=O)N(C)C[C@H]2Oc3ccc(NS(=O)(=O)c4ccc(OC)cc4)cc3CC(=O)N([C@H](C)CO)C[C@H]2C)cc1 | -21[16.7 µM] | 0
C[C@@H]1CN([C@@H](C)CO)C(=O)c2cccc(NC(=O)Nc3ccccc3)c2O[C@H]1CN(C)Cc1ccc(C(F)(F)F)cc1 | -9[16.7 µM] | 5

(listing goes on)
SMILES | Env fusion inh | UUG fidelity
C[C@@H]1CCCCO[C@@H](CN(C)Cc2ccc3c(c2)OCO3)[C@@H](C)CN([C@@H](C)CO)C(=O)c2cc(NC(=O)c3ccncc3)ccc2O1 | -9[16.7 µM] | 12
COC(=O)C[C@H]1CC[C@H]2[C@H](COc3ccc(NS(=O)(=O)c4ccccc4F)cc3C(=O)N2C)O1 | 0[16.7 µM] | 5
O=C(C[C@H]1CC[C@@H]2[C@H](COC[C@H](O)CN2C(=O)Nc2ccc(C(F)(F)F)cc2)O1)NC1Cc2ccccc2C1 | -1[16.7 µM] | 16
COc1ccc(S(=O)(=O)Nc2ccc3c(c2)CC(=O)N([C@@H](C)CO)C[C@H](C)[C@H](CN(C)C(=O)Nc2cccc4ccccc24)O3)cc1 | -4[16.7 µM] | -2
CC(C)NC(=O)Nc1ccc2c(c1)C(=O)N([C@@H](C)CO)C[C@H](C)[C@@H](CN(C)S(=O)(=O)c1cn(C)cn1)OCCCC[C@@H](C)O2 | 26[16.7 µM] | -16
C[C@H]1CN([C@@H](C)CO)C(=O)Cc2cc(NC(=O)NC3CCCCC3)ccc2O[C@@H]1CN(C)Cc1ccncc1 | -2[16.7 µM] | -14

High-throughput results as filed in PubChem.
